Compound activity: PubChem, National Center for Advancing Translational Sciences (NCATS)
VDR inh = vitamin D3 receptor (human) inhibition. Potency, µM, inactives show max response, negative = inhibition, usual class: inhibitors. 400,000 compounds, 0.93% hits. VDR-SRC2-3 peptide fluorescence polarization, 2 h; active = well fitted inhibition curve with a large enough effect; inconclusive = small, poorly fitted or top-dose-only effect, or another doubt; inactive = no such curve, though single readings can be large or run the other way; note: series mostly up to about 120 µM
Target sequence (P11473 whole entry, looked up): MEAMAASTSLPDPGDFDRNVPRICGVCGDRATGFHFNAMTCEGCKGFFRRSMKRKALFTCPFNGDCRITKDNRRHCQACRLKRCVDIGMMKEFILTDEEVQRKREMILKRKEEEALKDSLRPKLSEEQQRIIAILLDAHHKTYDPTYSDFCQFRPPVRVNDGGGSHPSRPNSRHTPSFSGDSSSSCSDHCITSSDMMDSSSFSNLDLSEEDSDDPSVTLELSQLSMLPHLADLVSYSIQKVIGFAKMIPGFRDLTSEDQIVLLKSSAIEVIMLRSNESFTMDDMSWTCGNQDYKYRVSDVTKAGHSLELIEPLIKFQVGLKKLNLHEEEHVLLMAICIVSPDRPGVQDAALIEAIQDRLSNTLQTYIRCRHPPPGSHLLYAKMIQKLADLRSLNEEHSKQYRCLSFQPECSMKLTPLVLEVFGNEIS
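The screen uses fluorescence polarization to detect compounds that interfere with recruitment of the SRC2-3 coactivator peptide to VDR; plates are read after 2 h at room temperature.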
* marks the source's active call; other numbers are inactive results; ? = inconclusive; & = joins results of further samples. % is set by controls: 0 for no effect and ±100 for the full control effect; potency is the fitted concentration of half-maximal effect. Some of the compounds tested; rates above refer to the full screens.

VDR inh	mol
-13%	CC[C@]12c3[nH]c4cc(-c5ccco5)ccc4c3CCN1C(=O)[C@@H](CC(=O)NCCN1CCOCC1)C[C@@H]2C(=O)N1CCN(C(=O)C2CC2)CC1
-5%	O=C(NCCN1CCN(C(=O)c2cccs2)CC1)C(=O)Nc1ccc(Br)cc1
-18%	Cc1ccc([N+](=O)[O-])cc1S(=O)(=O)Nc1ccc(OCC(=O)N2CCOCC2)cc1
-7%	CC(C)CCNC(=O)c1onc(CSc2ccc(F)c(F)c2)c1C(=O)NCCC(C)C
-12%	CC1CCCN(C(=O)C2CCN(S(=O)(=O)c3ccccc3)CC2)C1 (centres undefined)
8%	CC(C)CCNC(=O)CN(C(=O)CCC(=O)Nc1ccccn1)c1ccc2c(c1)OCO2
1%	COc1cc(/C=C/c2nc(C#N)c(NCCc3ccccc3)o2)cc(OC)c1OC
-7%	Cc1c(C(=O)OCCOc2ccc(Br)cc2)sc(=S)n1C
-3%	CNC(=O)CSc1nnc(NC(=O)Nc2ccccc2)s1
1%	CC[C@H](C)[C@H](NC(=O)CNC(=O)[C@H](CCCNC(=N)N)NC(=O)CNC(=O)[C@@H](NC(=O)[C@H](Cc1ccc(O)cc1)NC(=O)[C@H](Cc1c[nH]c2ccccc12)NC(=O)[C@H](C)NC(=O)[C@@H]1CCCN1C(=O)[C@H](CC(N)=O)NC(=O)[C@@H](NC(=O)[C@H](CC(=O)O)NC(=O)[C@@H]1CCCN1C(=O)[C@@H](N)[C@@H](C)O)[C@@H](C)CC)[C@@H](C)O)C(=O)N[C@@H](CCCNC(=N)N)C(=O)N1CCC[C@H]1C(=O)N[C@H](C(=O)NCC(=O)N[C@@H](CCCNC(=N)N)C(=O)N[C@@H](Cc1ccccc1)C(N)=O)C(C)C
-19%&-19%	COc1cccc(NC(=O)OCCN2CCN(Cc3ccccc3)CCC2=O)c1
8%	CCCc1cc(=O)[nH]c(SCC(=O)c2c(N)n(CC(C)C)c(=O)n(C)c2=O)n1
13%	Cc1ccc2cc(C)c(N3CCN(c4ccc(F)cc4)CC3)nc2c1
0%	Cc1ccc(NC(=O)Cn2nnc(C(=O)NCc3cccs3)c2N)cc1
14%	C=CCNC(=O)Nc1ccc(Cl)cn1
1%	O=C(COc1cccc2c1CCN(Cc1ccc(Cl)cc1)C2=O)N1CCOCC1
-5%	O=C(NCCN1CCOCC1)c1cn(-c2ccccc2)nc1-c1cccs1
-12%	CN(C)CCOc1ccc2c(c1)Sc1ccccc1CC2=O
-11%	Cc1[nH]c2ccccc2c1C(=O)CN1CCCC(C)C1 (centres undefined)
-1%	NC(N)=NC1=NC(=O)/C(=C/c2ccccc2-n2cccn2)S1

VDR inh	mol
?	COc1ccc(-c2nc(-c3ccccc3)c(NC(C)(C)C)o2)cc1
-3%	CCc1ccc2[nH]c(=O)c(CN(Cc3ccco3)C(=S)NCC3CCCO3)cc2c1 (centres undefined)
8%	Cc1ccc(CN2C(=O)c3ccccc3Sc3ccc(C(=O)OCc4ccco4)cc32)cc1
9%	CCOc1ccc(OCC)c(NS(=O)(=O)c2c(C(=O)N3CCCCCC3)c(C)n(C)c2C)c1
22%	CC(CCC(=O)O)C1CC[C@H]2C3CCC4CC(=O)CCC4(C)[C@H]3CC(=O)C12C (some centres undefined)
4%	CCOC(=O)c1cccc(NC(=O)Cn2ncc3c4ccccc4n(Cc4ccccc4)c3c2=O)c1
15%	COc1cccc(C(=O)Nc2ccccc2SCc2cc(=O)c3cccc(C)c3[nH]2)c1
6%	COc1ccc(N2CCN(C(=O)c3cnc(N4CCCC4)nc3C)CC2)cc1
7%	O=C1Nc2ncccc2OC1CCO (centres undefined)
-2%	CCOc1ccccc1N(C(=O)Cn1nnnc1-c1ccc(C)o1)C(CC)C(=O)NC(C)(C)C (centres undefined)
17%	CS(=O)(=O)Nc1ccc(C(=O)CSc2nnc(C3CC3)n2C2CC2)cc1
-10%	O=C(O)c1cc(NC(=O)c2ccc3c(c2)C(=O)N(Cc2cccnc2)C3=O)cc(C(=O)O)c1
-8%	COc1ccc(CNC(=O)CN(C(=O)c2csnn2)c2cccc(C(C)=O)c2)cc1
18%	Cc1nnc2n(-c3ccccc3)c(=O)c3c4c(sc3n12)CCCC4
18%	CCCCNC(=O)N(C)c1nncnc1C(=O)NC
8%	Cc1cccc(NC(=O)c2ccc([N+](=O)[O-])o2)c1
14%	O=C(CN1C(=O)COc2ccc(S(=O)(=O)NC3CCCC3)cc21)NCc1ccccc1Cl
1%	Fc1ccc(CSc2ncnc3c2oc2ccccc23)cc1
1%	Cc1csc2nc(-c3cccc(NC(=O)c4ccccc4Cl)c3)cn12
-14%	Cc1cc(C)c2sc(N(CCCN(C)C)C(=O)c3ccc(S(=O)(=O)N(C)C4CCCCC4)cc3)nc2c1

VDR inh	mol
9%	COc1ccc(C)cc1NC(=O)CCS(=O)(=O)c1cccc2nonc12
-15%	CC(C)(C)OC(=O)C[C@@H]1C/C=C\C[C@H](CC(=O)N[C@H](CO)Cc2ccccc2)C(=O)N2CCC[C@H]2COC1=O
-83%	CCOc1cc(/C=C2/C(=O)ON=C2C)ccc1OCc1ccccc1F
15%	CCCCOc1ccccc1C1C(C(N)=O)=C(C)Nc2nnnn21 (centres undefined)
19%	CCCCCC(=O)NNC(=O)c1c(O)c2ccccc2n(CC)c1=O
-6%	Cc1ccc(SCC(=O)OCC(=O)NC(C)c2ccc(F)cc2)cc1 (centres undefined)
-6%	CC(=O)Nc1ccc(NC(=O)C(C)OC(=O)C2CCC2)cc1 (centres undefined)
8%	Cc1noc(/C=C/c2ccccc2F)c1S(=O)(=O)N1CCC(C(=O)NCC(C)c2ccccc2)CC1 (centres undefined)
-6%	O=C(NCCc1ccccc1)c1ccco1
-8%	O=C1c2nc3cc(-c4ccco4)[nH]n3c(=O)c2CN1C1CCCCC1
2%	CC(C)OCCCNC(=S)NNC(=O)C(c1ccccc1)c1ccccc1
-7%	Nn1c(SCC(=O)NC2CCCCC2)nnc1-c1ccccc1F
9%	CCCCC(=O)NC1(C(F)(F)F)C(=O)Nc2c1c(=O)n(C)c(=O)n2C (centres undefined)
12%	O=C(Nc1ccn(Cc2ccccc2F)n1)c1ccc(COc2ccc(Br)cc2)cc1
?	Clc1ccc(NC2(c3nnnn3C3CCCCC3)CCCCC2)cc1
29%	COc1cccc2cc(C(C)N(CCCN3CCOCC3)C(=S)Nc3cccc(C)c3)oc12 (centres undefined)
-2%	CC(C)(C)OC(=O)C[C@H]1C/C=C\C[C@@H](CC(=O)N(CCO)Cc2ccccc2)C(=O)N[C@H](Cc2c[nH]c3ccccc23)COC1=O
-17%	Cc1ccc(C)c(S(=O)(=O)N2CCCOC2CNC(=O)C(=O)NCc2ccc3c(c2)OCO3)c1 (centres undefined)
14%	O=C(O)CC/C(=N/NC(=O)CNC(=O)C(c1ccccc1)c1ccccc1)c1ccccc1
-12%	COc1ccc(Cc2nc(-c3ccc(Cl)cc3)no2)cc1

VDR inh	mol
10%	FC(F)(F)c1cccc(N2CCN(c3ncnc4c3nc3n4CCCC3)CC2)c1
9%	CCOC(=O)CCNC(=O)Nc1ccc2nc(C)n(Cc3ccc(Cl)cc3)c(=O)c2c1
-11%	COc1ccccc1CN1C[C@@H]2C[C@@H](c3ccc(C)c(C)c3)N3CCC[C@@]23C1=O
-4%	CCCCn1c(N)c(N(CCOC)C(=O)c2ccc(S(=O)(=O)N(CC)c3ccccc3)cc2)c(=O)[nH]c1=O
6%	CCN1C(=O)CC(C(=O)NCCc2ccc(S(N)(=O)=O)cc2)SC1=Nc1ccc(OC)cc1 (centres undefined)
15%	O=S(=O)(NCc1cccc(Br)c1)c1ccc(-c2cc(C(F)(F)F)on2)s1
1%	OCCCc1cn(-c2ccccc2)c2ccccc12
-15%	CCOC(=O)N1CCN([N+]([O-])=NOc2cc(O/N=[N+](\[O-])N(CC)CC)c([N+](=O)[O-])cc2[N+](=O)[O-])CC1
4%	COc1ccc(/C=N/N=C2/NC(=O)CC(C(=O)O)S2)cc1 (centres undefined)
11%	CC1(C)C(=O)OC(c2c3ccccc3cc3ccccc23)C(C)(C)C1=O (centres undefined)
-8%	COc1cc(C(=O)O)cc(Br)c1OC1CCCC1
10%	CCCCOc1ccc(C(=O)NCC(=O)NNC(=O)C2COc3ccccc3O2)cc1 (centres undefined)
0%	Cc1ccccc1S(=O)(=O)NCc1ccc(N2CCN(C)CC2)cc1
-1%	O=C1CC2(CCCC2)CC(=O)N1CCCCNCC1COc2ccccc2O1 (centres undefined)
1%	Cc1ccc(N=C(NO)c2nonc2N)cc1
-17%	O=C(NCCNC(=O)c1ccccn1)c1ccc(Cl)cc1
4%	O=C(NCc1ccc2c(c1)OCO2)c1cccc(S(=O)(=O)N2CCCCC2)c1
6%	COc1cc(Cl)c(NC2=CC(=O)C(=O)c3ccccc32)c(OC)c1
11%	O=C(Nc1ccnn1C1CCN(Cc2ccccc2)CC1)C1CCCC1
-13%	CN(C(=O)c1ccc2c(c1)OCO2)C1(C(=O)NC2CCCCC2)CCCCC1

VDR inh	mol
15%	CC(C)c1ccc(NC(=O)COC(=O)/C=C/c2cccc([N+](=O)[O-])c2)cc1
2%	COc1cc2c(c(OC)c1OC)C(=O)CO2
-18%	O=C(CCCN1C(=O)/C(=C/c2ccccc2)SC1=S)N1CCOCC1
-13%	Cn1cccc1/C=C1\SC(=S)N(Nc2ccccc2)C1=O
11%	CCCNC(=O)CCC(=O)N1Cc2cccc(OC)c2Oc2ncccc21
-3%	COc1cc(C(=O)N2CCN(c3cccc(C)c3C)CC2)cc(OC)c1OC
0%	CCN(CC(=O)Nc1ccc(OC)c(OC)c1)CC(=O)Nc1ccccc1C(F)(F)F
5%	COc1ccc(OC)c(NC(=O)c2ccc3c(c2)OCO3)c1
-3%	Cc1cccc(C(=O)NC2CCN(S(=O)(=O)c3ccccc3F)CC2)c1
3%	Cc1nc(N2CCN(Cc3ccc(Cl)cc3)CC2)c2oc3ccccc3c2n1
6%	Cn1nc(C(=O)NNC(=O)c2ccc(Cl)cc2)ccc1=O
7%	Cc1ccc(C(C(=O)NC2CCCCC2)N(Cc2ccccc2)C(=O)Cc2c[nH]c3ccccc23)o1 (centres undefined)
-1%	CC(C)N(CCc1ccncc1)C(=O)Nc1ccc(Cl)c(Cl)c1
-2%	CCOC(=O)/C(C#N)=C/Nc1ccccc1NS(=O)(=O)c1cccc(C(C)=O)c1
-9%	CCCCCOC(=O)C1C(c2ccccc2)C(C(=O)O)C1c1ccccc1 (centres undefined)
79µM*	COCC(C)NC(=O)CCS(=O)(=O)c1nc(-c2ccc(OC)cc2)cc(C(F)(F)F)n1 (centres undefined)
?	COc1ccc([C@H]2CC(=O)C=C(c3ccc(Cl)c(F)c3)C2)cc1
2%	C=C[C@@H]1c2c(F)cccc2N(S(=O)(=O)c2ccc(C)cc2)[C@H](c2ccc(OC(C)=O)cc2)C1(C#N)C#N
-5%	Cc1cc2c(N=O)c(NO)ccc2[nH]1
-13%	CCN1CC(CN(C)Cc2nc(COc3ccccc3)no2)CC1=O (centres undefined)

Sorted by number of heavy atoms (highest first): seven of the compounds above.
VDR inh	mol
0%	CCN(CC(=O)Nc1ccc(OC)c(OC)c1)CC(=O)Nc1ccccc1C(F)(F)F
-2%	CCOC(=O)/C(C#N)=C/Nc1ccccc1NS(=O)(=O)c1cccc(C(C)=O)c1
3%	Cc1nc(N2CCN(Cc3ccc(Cl)cc3)CC2)c2oc3ccccc3c2n1
-9%	CCCCCOC(=O)C1C(c2ccccc2)C(C(=O)O)C1c1ccccc1 (centres undefined)
-3%	Cc1cccc(C(=O)NC2CCN(S(=O)(=O)c3ccccc3F)CC2)c1
-13%	CCN1CC(CN(C)Cc2nc(COc3ccccc3)no2)CC1=O (centres undefined)
?	COc1ccc([C@H]2CC(=O)C=C(c3ccc(Cl)c(F)c3)C2)cc1

New compounds follow:
VDR inh	mol
-6%	Cc1ccc(CNC(=O)c2cn(C)c3ccc(S(=O)(=O)N(C)C4CCCCC4)cc3c2=O)cc1
16%	COc1cc(-c2nnc(SCCOc3ccc(C)c(Cl)c3)o2)cc(OC)c1OC
12%	O=C(COc1ccc(Br)cc1)Nc1ccc(N2CCOCC2)cc1N1CCOCC1
-7%	Cc1ccc(SCC(=O)Nc2ccc(S(=O)(=O)Nc3nccs3)cc2)cc1
7%	Cc1noc(C)c1S(=O)(=O)Nc1ccc2c(c1)C(=O)N([C@H](C)CO)C[C@H](C)[C@@H](CN(C)S(=O)(=O)c1ccc(F)cc1)O2
1%	Cc1ccc(S(=O)(=O)N2CCN(Cc3ccccc3)CC2)cc1
-2%	COC(=O)COc1cccc2c(=O)n(CC(=O)NCc3ccc(F)cc3)ccc12
1%	NC(=O)c1cccc(S(=O)(=O)N2CCCCC2)c1
7%	Cc1ccccc1-c1noc(CSc2nnc(Cc3ccccc3)n2-c2ccc(F)cc2)n1
-8%	CC(=O)CC(=O)Nc1ccccc1NC(C)=O
3%	Cc1cn(CC(=O)c2ccccc2)c2ccccc12

Taken from above for reference:
VDR inh	mol
7%	Cc1noc(C)c1S(=O)(=O)Nc1ccc2c(c1)C(=O)N([C@H](C)CO)C[C@H](C)[C@@H](CN(C)S(=O)(=O)c1ccc(F)cc1)O2
1%	Cc1ccc(S(=O)(=O)N2CCN(Cc3ccccc3)CC2)cc1
-2%	COC(=O)COc1cccc2c(=O)n(CC(=O)NCc3ccc(F)cc3)ccc12
1%	NC(=O)c1cccc(S(=O)(=O)N2CCCCC2)c1
7%	Cc1ccccc1-c1noc(CSc2nnc(Cc3ccccc3)n2-c2ccc(F)cc2)n1
-8%	CC(=O)CC(=O)Nc1ccccc1NC(C)=O
3%	Cc1cn(CC(=O)c2ccccc2)c2ccccc12
